Ecoli growth = E. coli growth inhibition | Escherichia coli growth, OD600, 23 h; active compounds read low | OD600 absorbance (test concentration not listed) | actives 0.21% (n = 330,000);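 active = OD600 absorbance below the run mean of sample wells minus 3.6 SD, in any replicate, cut at about 0.56 in these data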;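 note: stock transfer was 300 nL into about 60 µL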
AF4-AF9 inh = inhibitors of human MLL-AF4/AF9 interaction | actives 0.47% (n = 350,000) | inhibition, % at 10 µM | AlphaScreen, biotin-AF4 peptide binding to FLAG-AF9;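 active = every replicate reaching a set inhibition limit, whatever the replicate mean, cut at about 25% in these data; inconclusive = mean inhibition reaches that limit but some replicates miss it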;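 note: 0% = plate neutral control median and 100% = total signal loss; the record names both 10 and 1 µM as test concentration; the first replicate is given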
Target sequence (P42568 whole entry, looked up): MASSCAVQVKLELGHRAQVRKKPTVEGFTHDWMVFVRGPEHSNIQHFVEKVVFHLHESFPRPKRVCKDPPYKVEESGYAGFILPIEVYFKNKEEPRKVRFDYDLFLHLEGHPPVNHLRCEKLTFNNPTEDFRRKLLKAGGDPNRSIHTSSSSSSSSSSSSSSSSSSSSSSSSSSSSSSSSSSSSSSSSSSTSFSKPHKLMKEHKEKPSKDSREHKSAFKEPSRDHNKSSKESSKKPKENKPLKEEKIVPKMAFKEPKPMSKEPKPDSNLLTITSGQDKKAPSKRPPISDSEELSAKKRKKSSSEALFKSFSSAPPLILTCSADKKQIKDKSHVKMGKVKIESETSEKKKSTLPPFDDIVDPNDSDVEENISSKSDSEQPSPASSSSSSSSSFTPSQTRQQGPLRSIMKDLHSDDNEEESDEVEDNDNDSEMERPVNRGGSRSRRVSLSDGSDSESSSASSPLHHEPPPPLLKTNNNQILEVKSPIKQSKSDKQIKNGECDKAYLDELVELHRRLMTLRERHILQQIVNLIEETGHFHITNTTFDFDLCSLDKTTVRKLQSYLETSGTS
ALR H2O2 inh = blocks human ALR sulfhydryl oxidase activity. actives 3.8% (n = 290,000). P55789. inhibition, % (test concentration not listed). purified ALR, DTT oxidation, H2O2 HRP-luminol luminescence;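 active = mean and each replicate at 75% or more; inconclusive = only one of the two met; inactive = neither met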;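 note: stock transfer was 7.5 nL into about 7.5 µL; 0% = neutral wells and 100% = wells with inactivated enzyme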
Target sequence (P55789 whole entry, looked up): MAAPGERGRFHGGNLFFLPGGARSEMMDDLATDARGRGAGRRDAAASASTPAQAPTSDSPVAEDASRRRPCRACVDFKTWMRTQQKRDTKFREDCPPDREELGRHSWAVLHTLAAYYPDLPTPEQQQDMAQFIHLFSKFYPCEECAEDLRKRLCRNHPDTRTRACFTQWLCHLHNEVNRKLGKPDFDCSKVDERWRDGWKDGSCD
FGF22 binding = binders of recombinant human FGF22 by thermal shift | AID 651658 | actives 1.5% (n = 340,000) | Q9HCT0 | calls only at 9.99 µM | SYPRO orange fluorescence; percent of sucrose octasulfate shift, DMSO zero;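 active = melting point raised past a set limit in the mean and every replicate; inconclusive = no clear call; three in four hits are not shown here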
Target sequence (Q9HCT0 whole entry, looked up): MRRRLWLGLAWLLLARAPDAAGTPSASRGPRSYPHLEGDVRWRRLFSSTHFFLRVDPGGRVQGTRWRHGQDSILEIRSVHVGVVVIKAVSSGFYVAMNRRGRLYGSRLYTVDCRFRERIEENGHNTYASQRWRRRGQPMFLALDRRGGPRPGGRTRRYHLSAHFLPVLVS
HNF4A DNA FP = change in binding of human HNF4 alpha to DNA; P41235; HNF4a-FITC DNA binding, fluorescence polarization, 1 h; activity change, % at 10 µM; actives 0.3% (n = 360,000); AID 1224865; in the data active = activity change above about 30%, passing the limit was not always enough;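 note: controls were the assay level and a saturating level of protein; the project sought stronger binding though the title names inhibitors; some compounds called inactive have numbers as strong as hits; positive values seem to mean higher polarization but the record does not say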
Vif A3G = inhibitors of Vif binding to APOBEC3G peptide, primary screen, biochemical, TR-FRET, GST-Vif 1-94, biotin-A3G peptide, dose response retest (AID 1117319) | TR-FRET GST-Vif / biotin-A3G peptide binding; higher % means a stronger effect; test concentration not given here; strong numbers were not always called active | one-dose inhibition, %; IC50 in µM for titrated hits | actives 0.57% (n = 260,000);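 active = above the screen mean plus three standard deviations and confirmed in dose response; inconclusive = results disagree or hit not tested in dose response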;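 note: Vif residues 1-94 fused to GST binding biotinylated APOBEC3G peptide 110-148; 0% = full assay without inhibitor and 100% = GST in place of GST-Vif; retest series ran down from 100 µM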
rRNA inh HTS = inhibits bacterial ribosomal RNA function over humanized ribosomes | E. coli WT GFP vs humanized-ribosome RFP mutants, fluorescence, 24 h; active compounds read low; DMSO median 0, no signal -100 | GFP signal change (wild-type ribosome), % (test concentration not listed) | actives 1.6% (n = 350,000);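 active = significant combined selectivity score with lowered wild-type GFP, culture density cut under 30%, mutant RFP and density less affected; inactive = any of these conditions unmet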; note: one replicate is shown; some compounds called inactive have numbers as strong as hits
rRNA inh HTS OD600 = second read-out of rRNA inh HTS, no call of its own (marks repeat the call); OD600 change, %; measured here: OD600 growth;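 optical density of the mix in the first replicate; 0 = DMSO median and -100 = no signal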
rRNA inh HTS RFP = further read-out of rRNA inh HTS, marked with its call; RFP signal change, %; measured here: RFP humanized mutant strains;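 first replicate; 0 = DMSO median and -100 = no signal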
Numbers without * were called inactive; i = inactive; ? = inconclusive; . = no result given; & = joins results of further samples. Only part of the results is shown; the hit share may differ from the screen's.

SMILES	Ecoli growth	AF4-AF9 inh	ALR H2O2 inh	FGF22 binding	HNF4A DNA FP	Vif A3G	rRNA inh HTS	rRNA inh HTS OD600	rRNA inh HTS RFP
CCOC(=O)C1=C(COC(=O)[C@@H]2CCCN2S(=O)(=O)c2ccc(C)cc2)NC(=O)NC1C (stereo partly drawn)	0.702	0.2	-1.1	i	2.5	15.2%	5.6	-4.8	7.3
O=C(C[C@H]1CC[C@@H]2[C@H](COC[C@@H](O)CN2S(=O)(=O)c2ccccc2F)O1)NCc1ccccc1F	.	-1.3	.	i	.	.	1.1	0.2	4.5
CCOCC(=O)Nc1nnc(C)s1	0.661	.	-2.6	.	2.0	0.4%	.	.	.
COc1ccc(OCC(O)CNC(=O)c2ccccc2)cc1 (stereo not drawn)	0.628	0.7	-3.0	i	0.1	-11.1%	9.5	16.1	2.7
CCOc1ccc(CCNc2nc3ccc(C)cc3n3cnnc23)cc1OCC	0.7	-1.2	6.8	i	0.0	-12.7%	8.1	8.1	2.1
CO[C@@H]1CN(C)C(=O)c2cc(NC(=O)Nc3ccccc3F)ccc2OC[C@@H](C)N(C(C)=O)C[C@@H]1C	.	1.0	.	i	.	.	0.4	3.3	-1.8
Cc1ccsc1/C=N/Nc1ncnc2nc[nH]c12	.	-1.6	42.7	i	2.7	0.6%	-33.9	-32.3	-3.9
COc1cc2c(cc1OC)C(c1ccccc1)NC(C)(C)C2 (stereo not drawn)	0.69	0.0	.	i	2.7	-3.6%	11.2	5.7	-1.9
S=C(Nc1ccccn1)NC1CCCC1	0.657	-4.4	9.2	i	1.4	-5.6%	2.5	3.5	-0.3
O=C(Cn1ccsc1=NC(=O)c1ccco1)c1ccccc1	0.696	.	9.5	.	1.0	21.6%	.	.	.
N#Cc1cc(Oc2cccc3cccnc23)c(-n2nnc3ccccc32)cc1C#N	0.712	4.6	-24.2	i	2.7	1.2%&-10.9%	-0.5	7.5	26.8
O=Cc1nc(-c2ccc(Cl)cc2)n2ccccc12	0.705	.	3.8	.	-1.1	10.6%	.	.	.
COc1ccc2oc3ccccc3c(=O)c2c1	0.607	-6.1	-2.7	i	1.5	-7.6%	-0.6	1.1	-2.7
Cc1cccc(C(=O)OC(C)C(=O)NC(=O)NC2CCCCC2)c1O (stereo not drawn)	0.686	.	-6.1	.	-2.2	8.8%	.	.	.
Cc1cccc(-n2c(-c3ccoc3C)n[nH]c2=S)c1	0.689	-1.7	91.0*	i	2.9	-10.0%	-10.9	-10.2	-3.3
C[C@H]1CN([C@@H](C)CO)C(=O)c2cc(C#CC(C)(C)O)cnc2O[C@@H]1CN(C)C(=O)c1ccccc1F	.	-3.9	.	i	.	.	-0.2	6.6	-6.6
C[C@@H]1CN([C@H](C)CO)C(=O)c2cc(NS(=O)(=O)c3cn(C)cn3)ccc2O[C@@H](C)CCCCO[C@@H]1CN(C)C	.	-4.9	.	i	.	.	3.1	1.1	-2.1
COc1cc2ccccc2cc1C(=O)Nc1cccnc1	0.65	.	-11.6	.	1.7	5.3%	.	.	.
COc1cc(NC(=O)C2=C(N3CCOCC3)/C(=C\c3ccc(N(C)C)cc3)CCC2)cc(OC)c1OC	0.734	.	56.9	.	5.7	7.4%	.	.	.
CS(=O)(=O)c1ccc2nc(NC(=O)CC3CCCC3)sc2c1	0.664	3.6	-10.3	i	0.2	2.8%	0.1	-1.8	1.7
COc1ccccc1CN1C(=O)C(C)ON=C1c1ccccc1F (stereo not drawn)	.	-1.9	.	i	5.4	.	8.9	5.0	-3.8
C[C@@H]1CN([C@H](C)CO)C(=O)c2cc(NC(=O)Nc3ccc4c(c3)OCO4)ccc2O[C@H]1CN(C)Cc1ccc(-c2ccccc2)cc1	.	6.2	.	i	.	.	-2.9	-7.2	0.0
Cc1ccc(C(=O)NCCOc2ccc(Cl)cc2)cc1	0.637	-0.8	-2.4	i	3.4	.	-8.6	-15.8	0.4
O=C(Oc1ccccc1/C=C\C(=O)c1cc2ccccc2o1)c1ccccc1	0.683	.	9.9	.	-3.3	30.9%	.	.	.
CC1(C(=O)NS(=O)(=O)c2ccccc2)CCN1C(=O)Cc1ccccc1Cl (stereo not drawn)	.	-18.9	.	i	0.2	.	12.2	24.5	-0.3
COc1ccccc1NC(=O)c1ccccc1NS(=O)(=O)N1CCCC1	0.688	.	1.7	.	-1.1	1.3%	.	.	.
Cc1ccc(-n2c(-c3ccco3)nc3c(cnn3-c3ccccc3C)c2=O)cc1	0.749	-3.0	-13.1	i	-0.4	-1.9%	3.8	5.6	1.1
Cc1nc(-c2ccc(C(=O)NCCO)cc2)cs1	0.683	-3.6	17.2	i	0.0	0.8%	-2.9	2.8	-6.1
CC(=O)Nc1ccc(/C=N/Nc2nc3ccccc3s2)cc1	.	3.9	.	i	-2.8	.	-3.5	-2.6	-3.7
Cc1cc(=S)[nH]c(=S)[nH]1	0.669	-6.0	61.2	i	-3.7	16.0%	15.3	12.6	-4.7
C[C@H]1CN([C@@H](C)CO)S(=O)(=O)c2ccc(-c3cncnc3)cc2O[C@H]1CN(C)C(=O)NC1CCCC1	.	0.4&1.8&1.3	.	i	6.6	.	2.6&4.0	2.4&23.0	5.4&-1.8
C[C@@H]1CCCCO[C@@H](CN(C)CC2CCCCC2)[C@H](C)CN([C@@H](C)CO)C(=O)c2cc(NC(=O)Nc3cccc4ccccc34)ccc2O1	.	-4.9	.	i	.	.	-1.4	-5.8	-1.3
Clc1ccc(Nc2ncnc3c2nnn3Cc2ccccc2)cc1	0.721	-6.7	-26.5	i	-0.5	-10.0%	21.5	2.9	0.7
Cc1ccc(S(=O)(=O)N2CCCC2)cc1C(=O)N1CCC(C)CC1	0.689	-1.7	-2.2	i	-1.1	.	1.8	4.8	0.2
O=C(Oc1coc(CSc2ncccn2)cc1=O)c1ccccc1[N+](=O)[O-]	0.642	-0.3	.	i	-3.6	-6.8%	0.8	4.8	-5.1
O=C(Cn1ccc([N+](=O)[O-])n1)NCc1cccnc1	0.685	-20.5	-4.8	i	-2.5	4.0%	9.9	-2.6	-2.8
COC(=O)C1=C(C)N(C)C(=O)/C1=C\c1ccco1	0.719	.	2.0	.	-2.8	9.7%	.	.	.
C[C@H](CO)N1C[C@H](C)[C@@H](CN(C)C(=O)Nc2ccc(C(F)(F)F)cc2)Oc2ncc(-c3cccnc3)cc2C1=O	.	-2.1	.	i	.	.	3.9	10.5	1.8
S=C(NCCCc1ccccc1)Nc1ccc(Cl)cc1	0.581	.	-12.1	.	1.2	.	.	.	.
CN(C)C(=O)c1cccc(-c2ccc([C@@H]3[C@@H](CO)N(C(=O)C4CC4)[C@H]3C#N)cc2)c1	.	-3.8	.	i	.	.	2.1	2.2	1.3
O=C(Nc1ccccc1F)N(Cc1ccc(F)cc1)Cc1nc2ccccc2c(=O)[nH]1	0.716	-2.2	-5.7	i	3.3	-5.2%	16.0	10.5	2.0
CCc1ccccc1NC(=S)NC1CC2CCCC(C1)N2Cc1cccs1 (stereo not drawn)	0.702	.	15.9	.	-1.8	?	.	.	.
C/C=C/c1ccc2c(c1)O[C@@H](CN(C)C(=O)Nc1ccc(OC)cc1)[C@@H](C)CN([C@@H](C)CO)S2(=O)=O	.	5.9	.	i	.	.	-8.5	-9.5	-1.1
Cc1ccc(/C=N/N2CCN(c3ccncc3S(=O)(=O)N3CCCCC3)CC2)cc1	.	.	-11.3	.	-0.6	-4.1%	.	.	.
N#CCNC1CC(=O)N(c2ccccc2)C1=O (stereo not drawn)	0.683	4.0	.	i	2.4	.	2.8	5.5	1.6
O=C(c1ccco1)N1CCN(C(=S)Nc2ccc(F)cc2)CC1	0.709	1.0	-1.5	i	10.7	.	3.6	4.4	0.4
Cc1nn(-c2ccccc2)c(C)c1NC(=O)COC(=O)/C=C/c1ccccc1	0.603	-1.4	2.3	.	0.2	-1.9%	5.1	12.5	0.4
CCCNC(=S)N1CCC(C(=O)c2ccc(OC)cc2)CC1	0.746	.	-2.6	.	-1.6	.	.	.	.
COC(=O)[C@]1(Cc2ccccc2)N[C@H](CN(C)C(=O)Nc2ccc(Cl)cc2)[C@@H]2C(=O)N(C)C(=O)[C@@H]21	0.662	2.5	.	i	-6.6	8.5%	-27.8	-23.1	-1.2
C[C@H](CO)N1C[C@H](C)[C@@H](CN(C)C)Oc2cc(C#CC3CC3)ccc2S1(=O)=O	.	-1.3	.	i	.	.	5.2	-5.4	-4.0

Additional structures follow.
SMILES	Ecoli growth	AF4-AF9 inh	ALR H2O2 inh	FGF22 binding	HNF4A DNA FP	Vif A3G	rRNA inh HTS	rRNA inh HTS OD600	rRNA inh HTS RFP
O=C(Nc1ccc(F)cc1)C1CC2CCC1C2 (stereo not drawn)	0.656	-10.1	-0.6	i	-0.1	.	-2.8	5.7	-3.5
Cc1cc(C)cc(NC(=O)C2CCCN2S(=O)(=O)c2cccc3cccnc23)c1 (stereo not drawn)	0.699	0.3	-0.7	i	1.5	-9.5%	-12.7	-14.0	4.1
CC(Sc1nc2ncc(Cl)cc2[nH]1)C(=O)Nc1ccccc1[N+](=O)[O-] (stereo not drawn)	.	-2.4	.	i	0.0	.	-3.8	18.9	1.3
O=C(O)CCCCCCCCc1cn(CCc2c[nH]c3ccccc23)nn1	.	3.0	-0.1	i	-0.8	.	-8.9	-5.5	-0.8
O=C(CSc1nc2ccccc2o1)N/N=C/c1ccccc1	.	.	-3.2	.	0.7	18.1%	.	.	.
O=C(CSc1nnc(-c2cccc(S(=O)(=O)N3CCCC3)c2)n1-c1ccccc1)Nc1ccc(C(=O)O)cc1	0.666	2.7	4.8	i	1.2	.	20.0	16.2	3.7
O=C1C2C3C=CC(CC3)C2C(=O)N1c1ccc(F)cc1 (stereo not drawn)	0.657	2.5	-7.0	i	2.1	.	6.7	6.0	-0.5
CCN(CC)c1ccc(C=C2C(=O)OC(C)(C(C)(C)C)OC2=O)cc1 (stereo not drawn)	0.654	10.2	14.2	i	4.9	.	10.8	1.6	22.7
CC1(C)CC(=O)C=C(Nc2ccccc2O)C1	0.705	.	64.9	.	-1.0	-1.9%	.	.	.
Cc1noc(C)c1NC(=O)N[C@@H]1CC[C@H](CCNC(=O)C2CCOCC2)O[C@@H]1CO	.	-13.6	.	i	.	.	2.1	7.8	-2.1
Cn1c(-c2ccc(F)cc2)cnc1NCc1cccc(F)c1	0.668	.	.	.	-1.9	2.9%	.	.	.
O=c1cc(Cn2nnc(-c3ccc(Cl)cc3)n2)nc2sccn12	0.74	.	-5.5	.	-10.1	1.6%	.	.	.
COc1ccc2[nH]c(=O)c(CN(CCO)C(=O)NCc3ccccc3)cc2c1	0.65	.	-0.5	.	0.3	?	.	.	.
COc1ccc(C(=O)NNC(=O)CCC(=O)Nc2ccc(C)cc2C)cc1	0.674	1.1	-6.1	i	0.8	.	.	.	.
O=S(=O)(c1cccc(-c2nnc(SCc3nc4ccccc4s3)o2)c1)N1CCOCC1	0.67	.	97.6*	.	10.8	-7.5%	.	.	.
COc1ccc(CNC(=O)c2cccc(NC3=NC4CS(=O)(=O)CC4S3)c2)cc1 (stereo not drawn)	0.677	-5.2	-3.7	i	1.9	.	5.0	5.1	1.7
C[C@H]1CN([C@@H](C)CO)C(=O)c2cc(NS(=O)(=O)c3ccc(Cl)cc3)ccc2O[C@H]1CN(C)S(=O)(=O)c1cccs1	.	-0.3	.	i	.	.	2.8	-16.0	8.6
CN1CCC(=NNC(=O)CN(c2cccc(Br)c2)S(C)(=O)=O)CC1	0.74	-12.9	10.5	i	-0.5	.	0.8	16.2	0.0

Bioassay records (PubChem)
